Assay outcomes from PubChem.
TRPML1 ag: agonists of human TRPML1 channel; 410,000 compounds, 0.12% hits; AID 624414; TRPML1-expressing cells, Ca2+ dye fluorescence, FDSS; host cell line not named in the record; reference of the full effect not given here; activation, % (no concentration beside the values); in the data active = activation above about 50%; inconclusive = about 30% to 50%; inactive = below about 30%; further: 0% is about no effect; the text of the record puts the active cut at 80%
Target sequence (Q9GZU1 whole entry, looked up): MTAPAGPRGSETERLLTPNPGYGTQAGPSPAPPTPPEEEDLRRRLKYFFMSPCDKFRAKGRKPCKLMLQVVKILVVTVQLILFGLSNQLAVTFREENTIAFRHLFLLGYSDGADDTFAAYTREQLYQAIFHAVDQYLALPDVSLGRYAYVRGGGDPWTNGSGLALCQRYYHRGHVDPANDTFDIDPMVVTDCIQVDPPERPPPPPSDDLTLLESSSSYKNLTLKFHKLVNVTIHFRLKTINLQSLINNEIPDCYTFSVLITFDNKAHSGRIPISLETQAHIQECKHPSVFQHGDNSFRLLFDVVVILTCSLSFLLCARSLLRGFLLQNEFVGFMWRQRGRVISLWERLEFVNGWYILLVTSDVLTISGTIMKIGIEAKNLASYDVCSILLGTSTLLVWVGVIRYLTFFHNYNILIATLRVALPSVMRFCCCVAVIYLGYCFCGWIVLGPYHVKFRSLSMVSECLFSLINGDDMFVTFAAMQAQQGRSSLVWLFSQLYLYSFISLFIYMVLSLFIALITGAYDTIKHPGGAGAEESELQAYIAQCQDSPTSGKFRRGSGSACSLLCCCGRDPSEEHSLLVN
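Calcium fluorescence on an FDSS kinetic reader gave the read-out. Tet-induced TRPML1-DL cells were plated overnight, dye-loaded (Ca8 with quencher, 45-90 min, room temperature, dark), then read 110 s after compound addition, and again 110 s after 4uM final 54-4 (EC80).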
Menin MLL FP FL: displaces fluorescein MLL peptide from human menin; AID 1766; FP activity change, % at 61.4 µM; Fluorescence polarization, fluorescein-MLL peptide displacement from menin; 290,000 tested, under 10 active; inconclusive = falling polarisation curve, or a change in total fluorescence; inactive = total fluorescence flat and polarisation flat or rising; no compound was filed as active; the % refers to the polarisation; negative = inhibition;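 further: % of control where 0% means no effect; inhibitors lower the polarisation; unlabelled MLL peptide was the positive control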
TRPML1 blocker: blocks the human TRPML1 channel. Q9GZU1. TRPML1-inducible cells, Ca2+ dye fluorescence, FDSS; stronger effect = lower value; inhibition of EC80 agonist-evoked calcium signal. activity change, negative = inhibition, % (test concentration not listed). 390,000 compounds, 0.02% hits. AID 624415; in the data active means activity change below about -50%; inconclusive means about -30% to -50%; inactive means above about -30%;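 further: stimulus is agonist 54-4 at its EC80 concentration; on the % scale 0 is the no-effect control and ±100 the full control effect; compound concentration not given in the record; the text of the record puts the active cut at -80%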
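Calcium fluorescence in TRPML1-DL cells induced overnight with Tet: a 110 s read after compound pin addition, then a 110 s antagonist read after challenge with 54-4 at 4 uM final (EC80).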
Sfp PPTase inh: blocks B. subtilis Sfp PPTase activity. Q9F4F7. Potency, µM, without a hit: max response, negative = inhibition, usual class: inhibitors. 310,000 compounds, 3.5% hits. Biochemical Sfp PPTase activity, qHTS; active means well fitted inhibition curve with a large enough effect; inconclusive means small, poorly fitted or top-dose-only effect, or another doubt; inactive means no such curve, though single readings can be large or run the other way;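 further: the enzyme is Sfp with the accession as filed and its product quenches rhodamine fluorescence; potency means the concentration at half of the fitted maximal effect; 0% = enzyme reaction without inhibitor and -100% = no enzyme wells; top concentration of the series not given in the record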
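Fluorescence-quenching assay with 15 nM Sfp, 5 uM rhodamine-CoA and 12.5 uM BHQ-2-labelled ybbR peptide in pH 7.6 Hepes/MgCl2 buffer. Enzyme was pre-incubated with compound for 15 min at room temperature. Rate was taken from the 30-min fluorescence change (525/598 nm).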
PINK1 expr mod: PINK1 expression modulation; PINK1 immunofluorescence, high-content cytometry, 24 h; AID 624263; 410,000 compounds, 0.2% hits; Potency, µM (doses to about 76.6 µM), inactives show at the top dose activation (PINK1 increase), hits mostly activators; active = well fitted activation curve with a large enough effect; inconclusive = small, poorly fitted or top-dose-only effect; inactive = flat fitted curve, though single readings scatter; cell line not stated here;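 further: potency means the concentration at half of the fitted maximal effect; % of control where 0% means no effect; nearly all actives have a fitted effect of over 65% in size; a mitochondrial uncoupler was the plate control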
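PINK1 protein, normally rapidly degraded, was detected by immunofluorescence after 24 hour compound treatment of a stable cell line. Titration data (5 concentrations) came from laser-scanning cytometry, with CCCP-treated wells as controls.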
ClpP mod: qHTS Assay for Activators of ClpP | ATP-dependent Clp protease proteolytic subunit (Bacillus subtilis (strain 168)), P80244 | purified B. subtilis ClpP, FRET peptide cleavage, 20 min | Potency, µM (top dose mostly 57.5 µM), inactives show at the highest dose activity change, negative = active | 340,000 compounds, 1.9% hits; active = well fitted falling curve with a large enough effect; inconclusive = small, poorly fitted or top-dose-only effect; inactive = no such curve, though single readings can be large or run the other way; further: potency means the concentration at half of the fitted maximal effect; the source files actives as falling curves though it sought activators and does not explain the sign; nearly all actives have a fitted effect of over 65% in size; many hits overshoot -100%
Target sequence (P80244 whole entry, looked up): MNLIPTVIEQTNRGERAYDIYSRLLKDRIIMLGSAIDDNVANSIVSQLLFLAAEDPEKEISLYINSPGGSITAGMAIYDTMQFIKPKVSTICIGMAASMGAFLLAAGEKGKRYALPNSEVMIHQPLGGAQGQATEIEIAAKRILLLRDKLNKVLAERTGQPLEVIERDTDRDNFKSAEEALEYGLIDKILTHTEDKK
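Buffer: 100 mM Tris/HCl pH8, 100 mM KCl, 0.05% low protease BSA, 2.5% glycerol, 0.01% Tween-20. ClpP 10 microg/mL final; 20 min RT; delta FRET normalized to ADEP and DMSO controls.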
TRPV1 potentiator: enhances activation of the human vanilloid receptor TRPV1; potentiation, % at 8.33 µM; 320,000 compounds, 0.02% hits; TRPV1-expressing cells, Fluo-8 calcium influx, capsaicin EC20 potentiation; host cell line not named in the record; control for the full effect not named in the record; AID 540277; Q8NER1; active means potentiation above 80%; inconclusive means 30% to 80%; inactive means below 30%; further: 0% is about no effect
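TRPV1-expressing cells were cultured overnight at 35.5C and loaded with Fluo-8 calcium dye for 40 to 90 min at room temperature. After a 10 s baseline, compound was added and calcium influx was read kinetically for 3 min (ex 480/em 520 nm).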
Starred values were filed as active, the others as inactive; u = inconclusive; x = no result given; & = joins results of further samples; [ ] = dose if it differs, or a comment.

SMILES	TRPML1 ag	Menin MLL FP FL	TRPML1 blocker	Sfp PPTase inh	PINK1 expr mod	ClpP mod	TRPV1 potentiator
CC(=O)c1ccc(NC(=O)C2CCCN2S(=O)(=O)c2cccs2)cc1 (configuration not stated)	-0.3	x	-6	x	2.6%	x	23
O=C(CCc1nnc(-c2ccc3c(c2)OCO3)o1)N(Cc1ccncc1)CC1CCCO1 (configuration not stated)	0.4	-0.1	18	-2%	1.8%	4.5%	-5
Cc1cc(C)cc(C(=O)N2CCN(Cc3ccc4c(c3)OCO4)CC2)c1	1.2	0.7	13	-1%	1.4%	-0.6%	-24
CC(C)c1nc2oc3c(NCC4CCCO4)ncnc3c2c2c1COC(C)(C)C2 (configuration not stated)	-0.2	6.4	-12	10%	8.7%	7.1µM*	-6
CCOC(=O)C1=C(COC(=O)COc2ccc(Br)cc2)NC(=O)NC1C (configuration not stated)	0.5	x	12	x	4.7%	-3.7%	6
Cc1cccc(N2CCN(c3ccc4cc(S(=O)(=O)N5CCC(C)CC5)ccc4n3)CC2C)c1 (configuration not stated)	24	x	-25	x	0.3%	-3.6%	x
Cn1cccc1Cc1nnc(SCC(=O)N2CCc3ccccc32)n1-c1ccc(F)cc1	0.1	1.3	6	-4%	7.7%	4.0%	-3
CCSc1nc2ccccc2n1C(=O)/C=C\c1ccc(OC)c(OC)c1	2.7	1.0	0	50µM*	-0.7%	-27%	-12
CN(C)S(=O)(=O)c1ccc(NC(=O)CN2C(=O)NC3(CCCC3)C2=O)cc1	-0.2	2.8	5	-2%	1.5%	x	4
CCc1ccc(-n2c(N3CCN(c4cccc(Cl)c4)CC3)nc3ccccc3c2=O)cc1	-0.2	x	-11	x	4.0%	5.0%	x
Clc1cccc(COn2c(-c3ccc(Cl)cc3Cl)nc3ncccc32)c1	-0.9	1.8	29	-3%	-0.9%	-30%	-44
Cc1ccc(-n2nc3c(N4CCC(C(=O)NCc5ccc(C)o5)CC4)nnc(C)c3c2C)cc1	2.2	u	15	-10%	-1.2%	-28%	-12
CCOCCCNC(=O)C(NC(=O)c1ccc(NC(C)=O)cc1)c1ccccc1 (configuration not stated)	-0.2	3.6	8	32%[activator]	0.3%	0.3%	4
CSc1cccc(CN2CCC(Oc3ccc(C(=O)N4CCCCC4)cc3)CC2)c1	1.9	x	-16	9%	1.1%	2.1%	-12
Cc1nc2cnc(N(C)C)nc2n(Cc2cccs2)c1=O	x	-0.9	x	-3%	-0.1%	x	x
CCN(CC)C(=S)SCC(=O)NC12CC3CC(CC(C3)C1)C2	0.0	2.6	11	5%	-1.4%	u	-14
Cc1cc(=O)[nH]c(SCC(=O)Nc2ccc(F)cc2)c1C#N	-0.9	-5.0	-15	8%	13%	x	3
COc1ccc(C)cc1NC(=O)Nc1nnc(N2CCCCC2)s1	-0.5	x	-2	x	-0.1%	2.2%	x
COc1cc(C=O)ccc1OCC(=O)NC(C)(C)C	-0.3	-2.1	-3	-16%	0.6%	x	-3
O=C(COc1ccc2ccccc2c1Br)Nc1cccnc1	0.8	x	8	11%	3.7%	0.3%	11
CC1CCN(C(=O)CSc2nc(N)c3c4c(sc3n2)CN(C)CC4)CC1	-0.2	2.1	-1	21%	0.8%	28µM*	-4
COC(=O)c1c(NC(=O)/C(C#N)=C/c2ccc(OC)cc2)sc2c1CCC2	0.7	x	3	x	13%	0.1%	x
COc1ccc(-c2nnc(SCC(=O)N3CCCCC3)o2)cc1	0.8&-0.5	x	-14&-2	15%	2.1%&1.5%	0.5%	-17
Cc1ncc([N+](=O)[O-])n1CCOC(=O)c1cc(Cl)cc(Cl)c1N	-0.5	0.5	9	3%	-0.4%	0.3%	u
CC(OC(=O)Cc1c[nH]c2ccccc12)C(=O)N(C)c1ccccc1 (configuration not stated)	1.0	x	1	x	6.3%	-1.6%	4
CCN1C(=O)N[C@@H](c2cccc(F)c2)C(C(=O)OC)=C1C	-0.3	-2.3[11.7 µM]	-11	-8%	0.2%	0.7%	x
COc1ccc(NC(=O)C2CCCN(S(=O)(=O)c3ccc(F)cc3)C2)cc1 (configuration not stated)	1.2	x	u	x	-0.2%	-0.7%	x
CCN(C(=O)CN1C(=O)S/C(=C\c2cccc(OC)c2)C1=O)C1CCS(=O)(=O)C1 (configuration not stated)	-1.1	x	8	4%	-0.6%	-0.9%	-11
CC(C)C1NC(C(=O)O)Cc2c1[nH]c1ccccc21 (configuration not stated)	-0.8	u	2	8%&-10%	-0.3%	x	4
CC1CCCC(C)N1CCNC(=O)C1CCN(S(=O)(=O)N2CCCCC2)CC1 (configuration not stated)	-0.1	3.2	9	10%	x	0.2%	9
O=C(NCCCN1CCOCC1)C1CC(=O)N(C2CCCCC2)C1 (configuration not stated)	-0.2	-0.9	14	15%	-1.1%	-2.0%	6
COc1cccc(/C=C2/SC(=S)N(CCCC(=O)Nc3ccc(O)cc3)C2=O)c1	0.4	x	-12	20%	-1.0%	1.1%	-10
COc1ccc(NC(=O)C2Cc3c(-c4cccc(C(C)=O)c4)ccnc3O2)cc1OC (configuration not stated)	-0.6	x	x	x	9.7%	0.3%	x
CCCCc1nc(SCC(=O)Nc2cc(C)on2)n[nH]1	-0.3	-0.5	10	10%	1.5%[38.3 µM]	-0.3%	14
COc1ccc(OC)c(NC(=O)c2ccccc2NS(=O)(=O)c2cccc3cccnc23)c1	-0.2	2.0	7	6%	-0.8%	-2.5%	14
O=C(CCc1ccccc1)Nc1cc(C(=O)O)cc(C(=O)O)c1	0.2	-2.2	-6	8%	-0.3%	x	1
COc1ccc2nc(Nc3ccccc3)sc2c1	3.0	0.7	1	0%	1.6%	0.5%	4
CCOc1ccc(CC(C(=O)NN)C(=O)NN)cc1CN(C)C	-0.1	5.2	-10	12%	0.8%[38.3 µM]	-2.9%	4
Cc1ccc(C)c(OCC(=O)N(C)CC(=O)Nc2ccc(Cl)c(C(F)(F)F)c2)c1	1.7	x	-9	x	3.0%	-3.8%	-1
Cc1sc(/N=C/c2c(O)ccc3ccccc23)c(C#N)c1C	x	3.1	x	15%	x	x	3

Laid out differently: entries from further up
CC(OC(=O)Cc1c[nH]c2ccccc12)C(=O)N(C)c1ccccc1 (configuration not stated)
  TRPML1 ag: 1.0
  Menin MLL FP FL: x
  TRPML1 blocker: 1
  Sfp PPTase inh: x
  PINK1 expr mod: 6.3%
  ClpP mod: -1.6%
  TRPV1 potentiator: 4
Clc1cccc(COn2c(-c3ccc(Cl)cc3Cl)nc3ncccc32)c1
  TRPML1 ag: -0.9
  Menin MLL FP FL: 1.8
  TRPML1 blocker: 29
  Sfp PPTase inh: -3%
  PINK1 expr mod: -0.9%
  ClpP mod: -30%
  TRPV1 potentiator: -44

(continued)
SMILES	TRPML1 ag	Menin MLL FP FL	TRPML1 blocker	Sfp PPTase inh	PINK1 expr mod	ClpP mod	TRPV1 potentiator
O=C(c1ccccc1)c1ccc2nc(N3CCCCC3)c3nncn3c2c1	-0.8	3.5	10	-8%	0.9%	-2.1%	13
O=C(CN1CCc2ccccc21)NCc1ccccc1Cl	1.5	1.9	-1	12%	-2.3%	-29%	-1
CC(C)c1ccc(CN2CCN(S(=O)(=O)c3ccc(Cl)s3)CC2)cc1	17	x	0	x	11%	0.4%	5
O=c1onc(-c2ccccc2Cl)n1-c1ccccc1Cl	0.2	x	0	x	6.6%	1.2%	x
COc1ccc2c(c1)cc1n2CCN=C1N	0.3	u	-3	7%	x	-2.1%	6
CCn1c(SCC(=O)Nc2ccc3c(c2)oc2ccccc23)nnc1-c1ccc(N)cc1	0.0	0.2	-10	0%	-1.5%	-4.5%	0
COC(=O)CCNC(=O)c1ccc2nc(Cc3ccc(OC)cc3)oc2c1	-0.5	x	12	x	0.3%	0.6%	x
CC(C)c1ccc(NC(=O)Cc2c(C(=O)O)n(C)c3ccccc23)cc1	-0.2	-3.0	10	-3%	0.7%	3.5%	19
C[C@@H](C(=O)NCc1ccccn1)[C@@H]1C[C@@]1(C)[C@@H](NC(=O)OCc1ccccc1)c1ccccc1	0.7	5.8&-4.6	-20	-2%&-6%	1.1%	-0.3%	11
O=C(N/N=C/c1ccc[nH]1)c1cccnc1	-0.8	-4.9	4	-10%	-1.3%	-1.3%	-3
Cc1nc2ccc(NS(=O)(=O)c3cccc([N+](=O)[O-])c3)cc2s1	-1.1	x	-15	x	2.5%	x	x
CN(Cc1ccco1)c1nc(-c2cccc(C#N)c2)nc2ccccc12	x	6.2	x	-27%	0.9%	x	x
O=S(=O)(c1ccccc1)c1nc(-c2ccccc2)oc1N1CCCCC1	2.0	0.7	10	u	-4.7%[38.3 µM]	-3.2%	3
CNCCCOc1cc2nc(N3CCCN(C)CC3)nc(NC3CCN(C)CC3)c2cc1OC	-0.5	x	x	x	0.9%	4.1%	x
C1CCN(c2nc3nonc3nc2NCC2CCOCC2)CC1	0.6	1.4	1	15%	1.2%	-0.8%	2
CCOc1ccc2cc(S(=O)(=O)N3CCCCC3)ccc2c1	1.2	-0.9	11	9%	-0.4%	x	1
Clc1ccc2nc(CSc3ccccc3)cn2c1	4.5	-2.7	26	5%	-1.1%	x	5
CC(C)c1ccc(NS(=O)(=O)c2ccc3[nH]cc(C(=O)NCC4CCCO4)c(=O)c3c2)cc1 (configuration not stated)	4.5	x	-6	x	2.9%	-7.6%	x
COc1cc(OC)cc(-n2c(=O)[nH]c3cc(C(=O)NCCc4ccc(C)cc4)ccc3c2=O)c1	-0.5	x	-5	x	2.5%	-1.7%	x
CCOc1ccc(C(=O)Nc2nnc(S(=O)(=O)N(C)Cc3ccco3)s2)cc1	0.7	-12	5	-3%	1.1%	-8.0%	14
COc1ccccc1C(=O)OCC(=O)NC(=O)NC1CCCCC1	0.0	x	0	x	11%	-14%	17
O=C(Nc1cc(S(=O)(=O)Nc2ccccc2Cl)ccc1O)c1cc2c(s1)CCCC2	-0.6	5.7	47	5%	1.9%	-1.8%	-7
Cc1nc2ccc(NC(=O)COc3ccccc3)cc2s1	2.5	1.1	11	5%	-2.1%	x	10
CCOC(=O)c1cnc2c(C)c(C)ccc2c1Nc1ccc(S(=O)(=O)Nc2ncccn2)cc1	-0.7	5.9	-9	10%	0.2%	-1.8%	-3
COc1ccccc1C(=O)N(Cc1ccc(Cl)cc1)C1CCS(=O)(=O)C1 (configuration not stated)	-0.1	x	8	14%	0.1%	-0.1%	-5
CCOC(=O)c1c(C)n(-c2ccccc2)c2ccc(OC(=O)c3ccccc3NC(=O)C(C)(C)C)cc12	-0.6	x	58	x	-0.3%	-25%	x
